# Assay outcomes from PubChem BioAssay.
# Marburg entry inh – qHTS for inhibitors of binding or entry into cells for Marburg Virus | Marburg virus pseudotyped entry inhibition, cell reporter; control for the full effect not named in the record; about a third of the inactives were read at about 46 µM | Potency, µM (titrated, usually from 37.8 µM), for inactives: at the highest dose activity change, negative = inhibition, actives largely listed as inhibitors | hit rate 1.8% among 300,000 | AID 540276, 2011; active = well fitted inhibition curve with a large enough effect; inconclusive = small, poorly fitted or top-dose-only effect, or effect the other way; inactive = flat fitted curve, though single readings scatter; tested in HEK293 cells; about a fifth of its hits are not listed in these tables; also: % is scaled to controls: 0 for no effect and ±100 for the full control effect; luciferase read-out
# RE007 growth inh – qHTS Assay for Inhibitors of the HIV-1 protein Vpr; S. pombe RE007 Vpr strain, BacTiter-Glo ATP luminescence, 24 h; control for the full effect not named in the record; Potency, µM (titrated, usually from 92.2 µM), without a hit: top-dose activity change, negative = less growth; hit rate 0.21% among 360,000; AID 651644, 2012; active = well fitted falling curve with a large enough effect; inconclusive = small, poorly fitted or top-dose-only effect; inactive = no such curve, though single readings can be large or run the other way;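 also: % is scaled to controls: 0 for no effect and ±100 for the full control effect; nearly all actives have a fitted effect of over 50% in size; the assay follows cell death caused by Vpr and the record does not say whether a fall means rescue or toxicity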
#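 Fission yeast RE007 carrying one integrated HIV-1 vpr copy, seeded at OD 0.01 in PMG+AL medium with 23 nL pinned compound. Grown 24 h at 30 degrees; viability read by BacTiter-Glo luminescence after 5 min.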
# StopGo reporter – High Throughput Screening for Foot and Mouth Disease Virus Antivirals. Potency, µM (titrated, usually from 57.9 µM), for the others: at the top dose signal change, negative = less light. hit rate 1.2% among 410,000. human cells with a luciferase reporter of 2A StopGo recoding; control for the full effect not named in the record; active = well fitted falling curve with a large enough effect; inconclusive = small, poorly fitted or top-dose-only effect; inactive = no such curve, though single readings can be large or run the other way; tested in HEK293T cells; also: % is scaled to controls: 0 for no effect and ±100 for the full control effect; nearly all actives have a fitted effect of over 45% in size; luciferase light after 4 h
# NS1 inh – qHTS Assay for Inhibitors of Influenza NS1 Protein Function | S. cerevisiae slowed by influenza A NS1, growth recovery by OD600 | Potency, µM (top dose mostly 46.1 µM), inactives show at the top dose activity, positive = more growth | hit rate 0.4% among 270,000; active means well fitted rising curve with a large enough effect; inconclusive means small, poorly fitted or top-dose-only effect; inactive means no such curve, though single readings can be large or run the other way; also: nearly all actives have a fitted effect of over 50% in size
#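 Recovery from NS1-induced slow growth read by OD600 in budding yeast switched to galactose assay medium (pH 6.0, -URA) at 1:100 dilution. Compound 23 nl per well; the matching strain lacking NS1 serves as control.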
# Lassa entry inh – qHTS for Inhibitors of binding or entry into cells for Lassa Virus; Lassa virus pseudotype entry inhibition, cell reporter; control for the full effect not named in the record; Potency, µM (titrated, usually from 37.9 µM), inactives show top-dose activity change, negative = inhibition, usual class: inhibitors; hit rate 1.2% among 300,000; AID 540256, 2011; active means well fitted inhibition curve with a large enough effect; inconclusive means small, poorly fitted or top-dose-only effect, or effect the other way; inactive means flat fitted curve, though single readings scatter; tested in HEK293 cells; also: % is scaled to controls: 0 for no effect and ±100 for the full control effect; nearly all actives have a fitted effect of over 50% in size; luciferase read-out
# Cruzain noTriton – qHTS Assay for Promiscuous and Specific Inhibitors of Cruzain (without detergent); Potency, µM, inactives show max response, negative = inhibition, actives largely listed as inhibitors; hit rate 2.3% among 200,000; purified cruzain, Z-FR-AMC fluorescence, no detergent;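 also: plate controls were enzyme without inhibitor for no effect and buffer without enzyme for full effect; nearly all actives have a fitted effect of over 40% in size; top concentration of the series not given in the record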
# Target sequence (P25779 123-467 limits assumed): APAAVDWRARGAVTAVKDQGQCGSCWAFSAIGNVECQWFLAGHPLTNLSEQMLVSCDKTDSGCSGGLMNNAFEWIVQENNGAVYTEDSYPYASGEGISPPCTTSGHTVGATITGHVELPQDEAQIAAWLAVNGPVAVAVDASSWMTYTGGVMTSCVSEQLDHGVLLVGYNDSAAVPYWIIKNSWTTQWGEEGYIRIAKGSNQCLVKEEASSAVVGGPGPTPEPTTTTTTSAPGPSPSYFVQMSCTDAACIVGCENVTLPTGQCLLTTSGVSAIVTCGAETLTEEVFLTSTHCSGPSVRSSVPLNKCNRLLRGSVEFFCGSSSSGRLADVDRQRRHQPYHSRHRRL
#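 Detergent-free condition (0.00005% Triton X-100) in acetate buffer pH 5.5 with DTT. 1.5 nM enzyme and compound were pre-mixed 15 min, then 2 uM Z-FR-AMC substrate added; reaction progress from fluorescence change between first and third reads (60 s).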
# Cruzain Triton – qHTS Assay for Promiscuous and Specific Inhibitors of Cruzain (with detergent); Cruzipain (Trypanosoma cruzi), P25779; purified cruzain, Z-FR-AMC fluorescence, 0.01% Triton; Potency, µM, for the others: max response, negative = inhibition, hits mostly inhibitors; hit rate 0.43% among 200,000;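 also: plate controls were neutral wells for no effect and buffer without enzyme for full effect; nearly all actives have a fitted effect of over 40% in size; top concentration of the series not given in the record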
#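 Cysteine protease activity tested under reducing, mildly acidic conditions (100 mM sodium acetate pH 5.5, 5 mM DTT) plus 0.01% Triton X-100. Cruzain 1.5 nM; substrate Z-FR-AMC 2 uM; 15 min compound preincubation at room temperature.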
# SARS PLpro yeast – qHTS of Yeast-based Assay for SARS-CoV PLP | hit rate 0.19% among 330,000 | AID 485353, 2010 | Potency, µM (top dose mostly 32.9 µM), without a hit: at the highest dose activity, positive = growth rescue | S. cerevisiae expressing SARS-CoV PLpro, growth rescue; control for the full effect not named in the record; active means well fitted rising curve with a large enough effect; inconclusive means small, poorly fitted or top-dose-only effect; inactive means no such curve, though single readings can be large or run the other way; also: 0% is about no effect; nearly all actives have a fitted effect of over 55% in size; growth read by luminescence after 48 h
# * hit, by the source's call; ? = inconclusive; . = no result given; & = joins results of further samples; [ ] = another dose, or the depositor's remark. Unless noted, calls follow the shape of the dose curve; as a rule, active = well fitted curve in the direction sought with a large enough effect; inconclusive = small, poorly fitted or top-dose-only effect, or another doubt; inactive = no such curve, though single readings can be large; an effect the other way counts as inactive or inconclusive. Potency is read from the fitted curve at half-maximal effect.
# The line under a structure holds: StopGo reporter, Lassa entry inh, Cruzain noTriton, Cruzain Triton, Marburg entry inh, RE007 growth inh, SARS PLpro yeast, NS1 inh
CCOC(=O)C1CCCN(C(=O)C2CCC(CNS(=O)(=O)c3ccc(NC(C)=O)cc3)CC2)C1 (stereo not given)
→ -18%, -19%, 17%, 6.4%, 5%&5%, 18%, -4%, -12%
N#CC1C(C#N)N2CCCN2C1c1ccc(Br)cc1 (stereo not given)
→ 5%, 12%, ., ., ?, 1%, 0%, 10%
S=C(Nc1ccccc1Cl)N1CCC(c2ccccc2)C1 (stereo not given)
→ 30%, 1%, ., ., 20%[46.1 µM], 7%, 2%, .
Cc1ccccc1CN1C(=O)c2ccccc2S(=O)c2ccc(C(=O)N3CCOCC3)cc21 (stereo not given)
→ -7%, -5%[46.1 µM], 16%, 4.1%, -1%[46.1 µM], ., ., .
CCOC(=O)CC1C(=O)NCCN1c1nc2c(C)cccn2c(=O)c1/C=C1\SC(=S)N(C(C)CC)C1=O (stereo not given)
→ 0%, 6.3µM*, ., ., ?, -8%, 0%, 11%
COc1ccc(-c2cc(C(F)(F)F)nc(SCC(=O)NCc3ccc(F)cc3)n2)cc1
→ -18%, ?, 9%, -2.7%, -11%[46.1 µM], ., ., .
O=C(CCC(=O)Nc1ccc(F)cc1)N/N=C/c1ccc(O)cc1O
→ 6%, ?, ., ., ?, 4%, -1%, .
O=S(=O)(c1ccccc1)C1(S(=O)(=O)c2ccccc2)CCCC1
→ 2%, ?, 0%, -0.6%, 12%, -4%, 2%, -14%
CC1(C)Cc2ccccc2-c2n[nH]c(=S)n21
→ ., 1%, -12%, 4.3%, ?, 7%, ?, 5%
CCOC(=O)c1c(C)[nH]c(C(=O)OCC(=O)Nc2ccc(Cl)cn2)c1C
→ -19%, 6%, ., ., 1%, 3%, 6%, .
CCCCn1c(SCC(=O)Nc2nnc(CC)s2)nc2ccccc2c1=O
→ -5%, -6%, ?, 6.4%, 6%, -2%, -2%, 6%
Cc1ccc(CCNC(=O)c2cn(C)c3ccc(S(=O)(=O)N4CCCCC4)cc3c2=O)cc1
→ 0%, 0%[46.1 µM], -6%, -2.4%, ?, ., ., .
O=C(c1noc2c1CCCC2)N1CCC(CO)(Cc2ccccc2Cl)CC1
→ ?, ?, ., ., ?, -26%, 0%, -1%
O=C(O)COc1cccc(/C=C2/SC(=S)N(Cc3ccccc3)C2=O)c1
→ 5%, 10%, ., ., -18%, 0%, -1%, 4%
CC(C)c1ccccc1NC(=O)Cn1cnc2c1c(=O)n(C)c(=O)n2C
→ -15%, 9%[46.1 µM], 0%, 0.4%, ., ., ., .
CCS(=O)(=O)Nc1ccc(C(=O)NCCSc2ccccc2)cc1
→ 47%[activator], -11%, ., ., 3%, 6%, -2%, 5%
COc1ccc2nc(C)cc(Nc3ccc(N4CCOCC4)cc3)c2c1
→ ., -16%, -21%, -6.3%, ?, -22%, 0%, -23%
Cc1ccccc1OCC(O)CN1CCN(CC(O)COc2ccccc2C)C(C)C1 (stereo not given)
→ -23%, ?, ., ., ?, -4%, 3%, 6%
Oc1ccc(Br)cc1Cn1nnc2ccccc21
→ 39%[activator], ., ., ., ., -11%, -7%, -25%
O=[N+]([O-])c1nn(-c2ccc(Cl)cc2)n(O)c1=NCc1cccnc1
→ 14%, 1%, 12%, -14%, -5%, -17%, -57%, -24%
O=C(c1ccc2c(c1)OCO2)N1CCN(c2ccc(F)cc2)CC1
→ 24%, -11%, 1%, 7.4%, 14%, 4%, 10%, 1%
COc1ccc(-n2nnnc2CNC(=O)c2ccc3c(c2)OCO3)cc1
→ 2%, -10%, ., ., 3%, 5%, -2%, .
Cc1cccc(NC(=O)Nc2cc(C)on2)c1
→ 37%[activator], 12%, 6%, 2.2%, -32%[46.1 µM], 2%, ., -50%
CC(=O)N1c2ccc(S(=O)(=O)NCCC(=O)Nc3ccc(C)c(Cl)c3)cc2CC1C (stereo not given)
→ -9%, -7%[46.1 µM], ., ., 4%[46.1 µM], 3%, -3%, -11%
O=C1CC(/C=C/c2ccc(Cl)cc2)=Nc2ccccc2N1
→ 5%, ., ., ., ., ?, 0%, 11%
CSCCC(NS(=O)(=O)c1ccccc1F)C(=O)NCc1ccncc1 (stereo not given)
→ -10%, -1%, ., ., -12%[46.1 µM], 0%, -4%, .
CCC(C)NC(=O)c1[nH]c2cc(C)ccc2c1Sc1ccc(Cl)cc1 (stereo not given)
→ 2%, 4%[46.1 µM], ?, -9.4%, 27%[46.1 µM], ., ., .
Cc1ccc(OCCN2CCN(C(=O)CCC(=O)Nc3nnc(C)s3)CC2)cc1
→ ?, -14%, 1%, 0.2%, -3%[46.1 µM], -19%, 4%, -5%
COc1cccc(OCc2cc(/C=N/NC(=O)c3ccn[nH]3)ccc2OC)c1
→ 13%, -24%, -20%, 0.7%, 2%, -6%, -7%, 9%
O=C(Nc1cccnc1)C1CCCN(S(=O)(=O)c2cccc3nsnc23)C1 (stereo not given)
→ ?, -8%, -12%, 0.5%, -28%, 2%, 2%, -6%
Cc1ccc2c(c1)C=CC(C)N2C(=O)c1ccccc1 (stereo not given)
→ -17%, -5%, 4%, -0.6%, -15%, -5%, -29%, -18%
CN(C)/C=N/c1c(C#N)cnn1-c1nc2ccccc2s1
→ -13%, 9%, -3%, 1.8%, 4%, -4%, 6%, -9%
COC(=O)c1ccc(C(NC(=O)OCc2ccccc2)/C(C)=C/[C@@H](C)C(=O)NCc2ccc(-c3ccccc3)cc2)cc1 (stereo not given in full)
→ 6%, ?, ?, -0.1%, ?, 2%, 15%, 19%
COc1cccc(/C=C/C(=O)c2cccc([N+](=O)[O-])c2)c1
→ 3%, 5%, ., ., ?, -6%, -1%, -54%
CCOc1cc(CNC(=O)C2COc3ccccc3C2)cc(OCC)c1OCC (stereo not given)
→ -12%, -3%[46.1 µM], 4%, -3.6%, ., ., ., .
CC(C)(C)CC(C)(C)NC(=S)Nc1ccc(S(=O)(=O)N2CCOCC2)cc1
→ ?, ?, ?, -10%, ?, 26%, 5%, 8%
CCN(CC)CCCn1c(=S)[nH]c2ncccc2c1=O
→ 28%, -18%, -8%, -3.8%, -3%, -11%, 6%, -7%
Cc1ccc(S(=O)(=O)N2CCOCC2)cc1NC(=O)COC(=O)C1COc2ccccc2O1 (stereo not given)
→ 0%, ?, 22%, -2.6%, 10%, 21%, -1%, -3%
O=C(Nc1ccc(Oc2cccnc2)cc1)C1CCN(Cc2ccccc2F)CC1
→ ?, -23%, ., ., -30%, -17%, 1%, -8%
CSc1ccc(Cl)c(C(=O)NCCOc2cc(C(C)C)ccc2C)c1
→ ?, 16%, 10%, -7.4%, 5%, 7%, -11%, -76%
Cc1cc(=O)[nH]c(SCCOc2cccc(C(F)(F)F)c2)n1
→ ., 2%, -3%, -8.9%, ?, -9%, -2%, 6%
COc1ccc2[nH]c3c(C)c4cc[n+](C)cc4c(C)c3c2c1
→ -4%, -2%, ., ., ?, ?, ., .
O=C(OCn1cncn1)c1ccc(Cl)cc1Cl
→ -12%, -17%, -9%, 2.0%, -16%[46.1 µM], 15%, -11%, -15%
CCOC(=O)C1CCCN(CCC(=O)Nc2ccc(C)cc2)C1 (stereo not given)
→ 6%, -16%, -5%, -2.0%, -2%, -4%, 12%, 6%
CCC(=O)Nc1ccccc1-c1nc2ccccc2n(C(C)C(=O)Nc2ccc(OC)cc2)c1=O (stereo not given)
→ 39%[activator], -25%[46.1 µM], ?, -2.6%, -25%[46.1 µM], ., ., .
CCC1C(=O)C(CC)C(c2ccccc2)NC1c1ccccc1 (stereo not given)
→ -13%, -23%[46.1 µM], ., ., -25%[46.1 µM], -2%, -5%, -5%
CCOc1ccc(OCC)c(N=c2oc3c(C)ncc(CO)c3cc2C(N)=O)c1
→ -9%, 8%, -1%, 0.7%, 5%, -15%, 2%, 0%
COC(=O)c1cc2nc(-c3ccccc3)cc(C(F)(F)F)n2n1
→ ., -5%, 4%, -2.8%, 9%, 0%, -14%, -3%
C/C(=N/NC(=O)C1CC1(c1ccccc1)c1ccccc1)c1cccs1 (stereo not given)
→ 9%, ., -4%, -7.7%, ., 6%, -4%, 6%
CCOC(=S)SCC(=O)N1CCc2ccccc2C1C1C(=O)CCCC1=O (stereo not given)
→ -2%, ., 2%, -2.8%, ., 0%, -3%, 0%
CC(C)C[C@H](NC(=O)c1nc[nH]c1C(=O)NC1CCN(C(=O)OC(C)(C)C)CC1)C(=O)OCc1ccccc1
→ 0%, ., ., ., ., 12%, -1%, ?
O=C(Cc1ccc(Cl)cc1)Nc1ccc(-c2nnc(-c3ccco3)o2)cc1
→ ?, ?, -4%, -1.0%, 4%, -15%, 3%, -23%

# Single records, as listed above. Values in the order: StopGo reporter	Lassa entry inh	Cruzain noTriton	Cruzain Triton	Marburg entry inh	RE007 growth inh	SARS PLpro yeast	NS1 inh
# Profile of CCC1C(=O)C(CC)C(c2ccccc2)NC1c1ccccc1 (stereo not given) = -13%	-23%[46.1 µM]	.	.	-25%[46.1 µM]	-2%	-5%	-5%
# Profile of O=C(OCn1cncn1)c1ccc(Cl)cc1Cl = -12%	-17%	-9%	2.0%	-16%[46.1 µM]	15%	-11%	-15%
# Profile of CCC(=O)Nc1ccccc1-c1nc2ccccc2n(C(C)C(=O)Nc2ccc(OC)cc2)c1=O (stereo not given) = 39%[activator]	-25%[46.1 µM]	?	-2.6%	-25%[46.1 µM]	.	.	.
# Profile of C/C(=N/NC(=O)C1CC1(c1ccccc1)c1ccccc1)c1cccs1 (stereo not given) = 9%	.	-4%	-7.7%	.	6%	-4%	6%
# Profile of Cc1ccc2c(c1)C=CC(C)N2C(=O)c1ccccc1 (stereo not given) = -17%	-5%	4%	-0.6%	-15%	-5%	-29%	-18%
